VDR inhibitor = blocks the human vitamin D receptor | actives 0.93% (n = 400,000) | P11473 | Potency, µM, inactives show max response, negative = inhibition, hits mostly inhibitors | VDR-SRC2-3 peptide fluorescence polarization, 2 h; active = well fitted inhibition curve with a large enough effect; inconclusive = small, poorly fitted or top-dose-only effect, or another doubt; inactive = no such curve, though single readings can be large or run the other way; also: series mostly up to about 120 µM
Target sequence (P11473 whole entry, looked up): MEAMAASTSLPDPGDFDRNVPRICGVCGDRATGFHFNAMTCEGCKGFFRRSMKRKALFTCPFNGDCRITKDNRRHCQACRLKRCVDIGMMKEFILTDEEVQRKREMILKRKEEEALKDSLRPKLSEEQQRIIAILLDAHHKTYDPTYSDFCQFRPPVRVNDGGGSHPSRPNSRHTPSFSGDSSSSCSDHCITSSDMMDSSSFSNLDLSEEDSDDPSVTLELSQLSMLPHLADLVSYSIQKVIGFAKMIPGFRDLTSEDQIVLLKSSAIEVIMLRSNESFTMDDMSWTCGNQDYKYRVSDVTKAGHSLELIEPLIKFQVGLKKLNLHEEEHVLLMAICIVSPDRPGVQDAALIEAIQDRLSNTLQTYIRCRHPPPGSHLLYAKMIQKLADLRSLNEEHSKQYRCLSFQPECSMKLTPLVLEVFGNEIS
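Reagent solutions, kept cold and dark, are dispensed first; compounds are then pinned in at 23 nl, plates briefly spun, and incubated 2 h at ambient temperature. Inhibition of VDR–SRC2-3 peptide binding is read by fluorescence polarization.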
Numbers without * were called inactive; u = inconclusive; & = joins results of further samples; ! = repeats disagree. % is scaled to controls: 0 for no effect and ±100 for the full control effect; potency is read from the fitted curve at half-maximal effect. A portion of the library. The share of hits here may be higher or lower than overall.

nr	VDR inhibitor	canonical_smiles
1	9%	COc1ccc(OC(=O)c2nc(SCc3ccc(F)cc3)ncc2Cl)cc1
2	-16%	Cc1cccc(-c2noc(CCCC(=O)NC3CCCC3)n2)c1
3	-21%	O=C(c1ccccc1OCc1ccccc1Br)N1CCN(c2ncccn2)CC1
4	2%	Cc1cccc(N(CC(=O)NC2CCCCC2)C(=O)c2c(C)noc2C)c1
5	8%	Cc1ccc(S(=O)(=O)NC(=O)NCCCCNC(=O)NS(=O)(=O)c2ccc(C)cc2)cc1
6	-2%	Oc1ccc(/C=N/Nc2ccc(Cl)nn2)cc1O
7	11%	COc1ccc(-c2cn3nc(N4CCCC(C(=O)Nc5cccc(Cl)c5C)C4)sc3n2)cc1 (configuration not stated)
8	-18%	COC(=O)C1C2C=CC3(CN(c4cccc(Cl)c4)C(=O)C13)O2 (configuration not stated)
9	-8%	CC1CCC(NC(=O)Cn2cc3c(n2)CCCC3)CC1 (configuration not stated)
10	23%	CC(NCCc1ccc(S(N)(=O)=O)cc1)C(=O)NCCc1ccc(F)cc1 (configuration not stated)
11	-9%	Cc1ccccc1CSCC(=O)NCCSc1ccccn1
12	4%	O=C(COC(=O)c1cncc(Br)c1)NCc1ccco1
13	-1%	CCOC(=O)c1c(-c2ccc(F)cc2)csc1NC(=O)c1c(-c2ccccc2)noc1C
14	-22%	CCOc1cc(/C=C2\CCCc3c2nc2ccccc2c3C(=O)O)ccc1OC
15	-19%	CC1=C(CCN2CCN(C3CCCC3)C(CCO)C2)C(C)(C)CCC1 (configuration not stated)
16	-12%	CC1(C)CN(C(Cc2ccccc2)C(N)=O)C1=O (configuration not stated)
17	-2%	CC1CCCCN1C(=O)c1cc(S(=O)(=O)N2CCOCC2)ccc1Cl (configuration not stated)
18	-12%	CC(C)(C)c1nnc2sc(SCC(=O)N3CCc4ccccc43)nn2c1=O
19	-11%&3%	CCc1nn(CCCC(=O)NC(C)c2ccccc2)c(=O)c2cc3occc3n12 (configuration not stated)
20	u	C=CCNC(=S)Nc1sc2c(c1C(N)=O)CCCC2
21	-6%	CCc1ccc(C2NC(c3ccc(CC)cc3)C([N+](=O)[O-])C(C)(C)C2[N+](=O)[O-])cc1 (configuration not stated)
22	u	Cc1ccc(S(=O)(=O)Oc2ccc(/C=C3/C(=N)N4C(=NC3=O)SN=C4S(C)(=O)=O)cc2)cc1
23	-6%	O=C(c1ccccc1)c1ccc(OCC(=O)N2CCOCC2)cc1
24	16µM*	COc1ccc(NC(=O)/C(Cl)=C(/Cl)S(=O)(=O)Cc2ccc(C)cc2)cn1
25	-12%	Cc1cc2c(ncn2C)c(NS(=O)(=O)c2ccc(F)cc2)c1C
26	u	COc1ccc(CCN2C(=O)NC(NC(=O)c3ccccc3OC)(C(F)(F)F)C2=O)cc1OC (configuration not stated)
27	-5%	O=C(NCc1csc(-c2ccccc2)n1)c1cc(F)cc2c1OCOC2
28	u	Cc1cccc([C@H]2[C@@H]3C=CC[C@@H](C)[C@@H]3C(=O)N2Cc2ccccc2)c1
29	0%	O=C(Nc1nc2cc3c(cc2s1)OCO3)C1CCCCC1
30	-1%	CCOC(=O)N1CCC(NC(=O)CN(C)S(=O)(=O)c2cc3c(cc2Cl)NC(=O)CO3)CC1

Given field by field: entries from further up
19: CCc1nn(CCCC(=O)NC(C)c2ccccc2)c(=O)c2cc3occc3n12 (configuration not stated)
  VDR inhibitor = -11%&3%
20: C=CCNC(=S)Nc1sc2c(c1C(N)=O)CCCC2
  VDR inhibitor = u
21: CCc1ccc(C2NC(c3ccc(CC)cc3)C([N+](=O)[O-])C(C)(C)C2[N+](=O)[O-])cc1 (configuration not stated)
  VDR inhibitor = -6%

Next compounds.
nr	VDR inhibitor	canonical_smiles
31	11%	COc1cccc(C(=O)C2CCCN(Cc3cccn3-c3ccccn3)C2)c1 (configuration not stated)
32	22%	O=C(Nc1ccccc1)N1CCN2C(=O)c3ccccc3C12c1ccccc1 (configuration not stated)
33	-15%	Cc1ccc(-n2nnnc2SC(C)C(=O)NCC(=O)Nc2ccc(F)c(F)c2F)c(C)c1 (configuration not stated)
34	u	Cc1ccc(NC(=O)C(C)N2CCc3ccccc3C2)cc1 (configuration not stated)
35	-9%	CCOc1ccc(C2=Nn3c(nnc3-c3ccccc3OC)SC2)cc1
36	-4%	Cc1nc(N2CCOCC2)c2c(C(=O)NCCc3ccccc3)c(C)oc2n1
37	-6%	O=C(N/N=C/c1ccc(Cl)cc1Cl)C(=O)NC1CC1
38	15%	CC1(C)C(=O)OC(C(=O)c2ccc(C(C)(C)C)cc2)C(C)(C)C1=O (configuration not stated)
39	-6%	Cc1cccc2cc(-c3ccccc3)c(-c3ccccc3)c[n+]12
40	-6%	OCC[C@H]1C[C@@H](O)[C@H](O)[C@@]2(CCc3ccccc3O2)O1
41	-10%	CCc1cccc(CC)c1NC(=S)NC(C)c1ccccc1 (configuration not stated)
42	-3%	CCC1CCCCN1CCCNC(=O)CN1C(=O)COc2ccccc21 (configuration not stated)
43	-24%	CC(CN1CCCC1)OC(=O)c1ccc(Br)cc1 (configuration not stated)
44	2%	COc1ccc(C2=C(SC)CC2=NC(C)(C)C)cc1
45	-20%	COc1ccc2nc(N=Nc3ccc(N(C)C)cc3)sc2c1
46	-4%	CCN(CC)C(=O)c1sc(NC(=O)C(C)C)c(C#N)c1C
47	-15%	O=C(c1cccs1)c1ccccc1Cc1cccs1
48	-14%	CC(C)c1ccc2[nH]c3c(c2c1)CCC/C3=N\NC(=O)c1ccncc1
49	-11%	Cc1ccc(C(=O)c2ccccc2C(=O)O)cc1C
50	-13%	Cc1ccc(CCNC(=O)CSCc2ccc(F)cc2)cc1
51	-1%	COc1cc(NC(=O)c2ccco2)c(OC)cc1NC(=O)CSc1nnc(-c2cccs2)n1C
52	4%	CCCCn1c(N)c(N(CC(C)C)C(=O)c2oc3ccc(Br)cc3c2C)c(=O)[nH]c1=O
53	-20%	O=C(NCCOc1ccccc1)C1CCC(=O)N(CCCN2CCCC2=O)C1 (configuration not stated)
54	-1%	CCNc1ccc(C(=O)OCC(=O)NC(=O)NCC(C)C)cc1[N+](=O)[O-]
55	-2%	CCNc1nc(NCc2ccccc2)nc(SCC(=O)Nc2ccccc2)n1
56	-9%	COCc1nc(-c2cc(Br)ccc2OC)no1
57	4%	CCOc1ccccc1OCCCC(=O)Nc1ccc(OC)nc1
58	-18%	O=C(CSc1nnc(-c2ccncc2)n1CC1CCCO1)Nc1nccs1 (configuration not stated)
59	4%	CC(=O)c1ccc(N2CCN(C(=O)c3ccc(NC(=O)C4CCCO4)cc3)CC2)cc1 (configuration not stated)
60	3%	CCc1nn(CC(=O)NCCCN2CCOCC2)c(=O)c2cc3sccc3n12
61	-10%	COc1ccccc1NC(=O)c1cc2ccccc2o/c1=N\O
62	-8%	OCCNC1=NCCN1
63	23%	N=C1C(=O)OCC1c1cc(Cl)ccc1NC(=O)Nc1ccccc1 (configuration not stated)
64	8%	c1ccc(COCCN2CCN(CCOCc3ccccc3)CC2)cc1
65	-9%	CCCCCn1c(=O)[nH]c2cc(C(=O)NCCN3CCOCC3)ccc2c1=O
66	-11%	CCN(CC)CCCNC(=O)c1nn(-c2ccc(OC)c(Cl)c2)c(=O)c2c1c1ccccc1n2C
67	16%	COc1cccc(NC(=O)N2CCC(C(N)=O)(N3CCCCC3)CC2)c1
68	10%	O=C(NCCCN1CCOCC1)c1c(-c2ccccc2)sc2ccccc12
69	6%	COc1ccc(NS(=O)(=O)c2cc(NC(=O)/C=C/c3cc(OC)c(OC)c(OC)c3)ccc2N2CCCCC2)cc1
70	-5%	COC(=O)c1ccc(OC)c(Cn2c(=O)n(-c3cccc(Cl)c3)c(=O)c3c4c(sc32)CN(C(C)=O)CC4)c1
71	9%	CC1CCCCC1NC(=O)CSc1nnc(-c2ccncc2)n1CCCN(C)C (configuration not stated)
72	26%	Nc1cc(N)nc(SCC(=O)N2CCN(C(=O)c3ccco3)CC2)n1
73	50µM*!	CC[C@H](C)C(=O)O[C@H]1C[C@@H](C)C=C2C=C[C@H](C)[C@H](CC[C@@H]3C[C@@H](O)CC(=O)O3)[C@H]21
74	12%	CCc1cccc(NC(=O)Cn2c(=O)n3nc(-c4cccc(F)c4)nc3c3ccccc32)c1
75	-1%	CC(C)N(Cc1ccccc1)C(=O)c1ccc2nsnc2c1
76	-8%	COCCNC(=S)N(Cc1cccs1)Cc1cc2cccc(C)c2[nH]c1=O
77	7%	CC[C@H](C)[C@@H](C(=O)N1CCNCC1)n1cc([C@@H](N)Cc2ccc(O)cc2)nn1
78	2%	O=C(Nc1cc([N+](=O)[O-])ccc1C(=O)Nc1cccnc1)c1ccccc1
79	-13%	COc1cc(NC(=O)c2ccc3c(c2)OCO3)c2ncccc2c1
80	-16%	C=CCN=Cc1c(C)[nH]n(-c2ccccc2)c1=O
81	0%	CCN(c1ccccc1)S(=O)(=O)c1nnc(NC(=O)COc2cccc(C)c2)s1
82	-1%	COc1ccc(NC(=O)COC(=O)CN2C(=O)C3CC=CCC3C2=O)c([N+](=O)[O-])c1 (configuration not stated)
83	-4%	O=C(OC(c1ccccc1)c1nccc2ccccc12)c1cccc([N+](=O)[O-])c1 (configuration not stated)
84	-16%	O=C(CCC1CCN(C(=O)c2ccco2)CC1)NCc1ccc(F)cc1
85	89µM*	Cc1cc(=O)[nH]c(N/N=C/C2=C(N3CCOCC3)C(=C\c3ccc(Cl)cc3)/CC2)n1
86	-13%	CC1=C(C#N)C(c2cccnc2)C2=C(CC(C)(C)CC2=O)N1 (configuration not stated)
87	-1%	COC(=O)c1cc2n3ccccc3c(C)c(-c3ccccc3)c-2c1C(=O)OC
88	-4%	O=C(Nc1ccc(S(=O)(=O)N2CCCCC2)cc1)C1CC1
89	-16%&7%	COc1cccc(CNC(=O)CCS(=O)(=O)c2cc3c(cc2C)NC(=O)CO3)c1
90	-18%	Cc1ccc(S(=O)(=O)c2nc(S(=O)(=O)CCO)sc2N2CCOCC2)cc1

Further records
nr	VDR inhibitor	canonical_smiles
91	-1%	NC(=O)c1sc2nccc(Nc3ccccc3)c2c1N
92	-20%	O=P(O)(CCc1ccccc1)C(O)c1ccccc1 (configuration not stated)
93	0%	O=S1(=O)c2ccccc2Nc2ccccc21
94	4%	OCC1(CO)COC(C(Cl)(Cl)Cl)OC1
95	-18%	Cc1cc(N2CCC(C(=O)Nc3ccccc3Cl)CC2)n2nc(C)c(-c3ccc(Cl)cc3)c2n1
96	u	COc1cc(C(=O)Oc2c(Sc3ccccc3)c(C)nn2-c2ccccc2)cc(OC)c1OC
97	2%	Cc1ccc(CCNC(=O)c2cccc(N3CCCC3=O)c2)cc1
98	8%	C/C(=N\NC(=O)COc1ccc2ccccc2c1)c1cccs1
99	11%	CCS(=O)(=O)Nc1ccc(-c2ccc(NS(=O)(=O)CC)c(OC)c2)cc1OC
100	17%	O=C(NCc1ccc(Cl)cc1)c1ccc2oc(=O)n(Cc3ccccc3)c2c1
101	-10%	COc1ccc(Cc2noc(CN(C)CCc3ccccc3)n2)cc1OC
102	5%	CC1CCN(C(=O)COC(=O)c2ccc3c(c2)C(=O)N(Cc2ccco2)C3=O)CC1
103	5%	O=C(O)CSCCC(=O)Nc1ccc(F)cc1
104	-24%	CCCCn1c(CNC(=O)CCC)nc2ccccc21
105	-10%	CCc1noc(C)c1C(=O)N(CC)CC(=O)Nc1ccccc1C(F)(F)F
106	5%	O=C(COc1ccc(-c2nnco2)cc1)Nc1ccc(C(F)(F)F)cc1
107	3%	COc1ccc(C(C)C)cc1S(=O)(=O)NCCCn1ccnc1
108	3%	CC(C)OC(=O)CSc1nnc(-c2ccc(Cl)cc2)n1N
109	11%	Cc1ccccc1NC(=O)Nc1nnc(N(C)Cc2ccccc2)s1
110	16%	CCCN1/C(=C2/SC(=S)N(CC)C2=O)C=Cc2ccccc21
111	2%	COc1ccc(-c2csc3ncn(-c4ccccc4)c(=O)c23)cc1OC
112	9%	O=C(NC1CCCC1)C(=O)N(Cc1cccnc1)C(C(=O)NCc1ccco1)c1ccccc1F (configuration not stated)
113	-2%	COc1ccc2cc(C#N)c(SCC(=O)Nc3nonc3C)nc2c1
114	0%	Cc1onc(-c2ccccc2)c1C(=O)NCc1cccs1
115	14%	CCOC(=O)Nc1nc(-c2ccccc2)c(C(=O)c2ccc(Cl)cc2)s1
116	0%	COC(=O)CC1SC(=O)NC1=Nc1ccc(C)cc1 (configuration not stated)
117	2%	CCc1ccc(C2=NN(CCC(=O)NCC3CCCO3)C(=O)CC2)cc1 (configuration not stated)
118	4%	Cc1c(C(=O)Nc2ccccc2Cl)sc2ncnc(N(C)C3CCCCC3)c12

Gathered by group: the compounds so far with a thiophene ring, fused or not.
nr	VDR inhibitor	canonical_smiles
13	-1%	CCOC(=O)c1c(-c2ccc(F)cc2)csc1NC(=O)c1c(-c2ccccc2)noc1C
20	u	C=CCNC(=S)Nc1sc2c(c1C(N)=O)CCCC2
46	-4%	CCN(CC)C(=O)c1sc(NC(=O)C(C)C)c(C#N)c1C
47	-15%	O=C(c1cccs1)c1ccccc1Cc1cccs1
51	-1%	COc1cc(NC(=O)c2ccco2)c(OC)cc1NC(=O)CSc1nnc(-c2cccs2)n1C
60	3%	CCc1nn(CC(=O)NCCCN2CCOCC2)c(=O)c2cc3sccc3n12
68	10%	O=C(NCCCN1CCOCC1)c1c(-c2ccccc2)sc2ccccc12
70	-5%	COC(=O)c1ccc(OC)c(Cn2c(=O)n(-c3cccc(Cl)c3)c(=O)c3c4c(sc32)CN(C(C)=O)CC4)c1
76	-8%	COCCNC(=S)N(Cc1cccs1)Cc1cc2cccc(C)c2[nH]c1=O
91	-1%	NC(=O)c1sc2nccc(Nc3ccccc3)c2c1N
98	8%	C/C(=N\NC(=O)COc1ccc2ccccc2c1)c1cccs1
111	2%	COc1ccc(-c2csc3ncn(-c4ccccc4)c(=O)c23)cc1OC
114	0%	Cc1onc(-c2ccccc2)c1C(=O)NCc1cccs1
118	4%	Cc1c(C(=O)Nc2ccccc2Cl)sc2ncnc(N(C)C3CCCCC3)c12
